Source: PubChem
VP16 counter: counter-screen for ROR gamma inhibitors: Gal4-VP16 reporter. 3.5% of 310,000 active. AID 2546. Drosophila S2 Gal4-VP16 UAS-luciferase, luminescence, 20 h. Potency, µM (titrated, usually from 53.6 µM), for inactives: at the highest dose activity, negative = inhibition, usual class: inhibitors;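 further: Gal4-VP16 expression switched on by copper sulfate through the metallothionein promoter; on the % scale 0 is the no-effect control and ±100 the full control effect; nearly all actives have a fitted effect of over 50% in size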
ELG1 genotox: induces genotoxicity in HEK293T cells with luciferase-tagged ELG1. 1.3% of 330,000 active. Potency, µM (highest dose often 46 µM), without a hit: at the top dose activity change, positive = activation, most hits filed as activators. HEK293T ELG1-luciferase reporter, luminescence, 16 h. AID 504466; further: % of control where 0% means no effect; nearly all actives have a fitted effect of over 60% in size
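ELG1-luciferase HEK293T cells, 2,000/well; compound pinned in; 16 hr, 37 °C, 5% CO2; ONE-Glo, 30 min RT; luminescence on CCD imager.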
RORg inh: ROR gamma (mouse) transcription inhibition | P51450 | Drosophila S2 Gal4-RORgamma UAS-luciferase reporter, 20 h | Potency, µM (highest dose often 53.6 µM), for inactives: top-dose activity change, negative = inhibition, most hits filed as inhibitors | 5.4% of 310,000 active | AID 2551; further: on the % scale 0 is the no-effect control and ±100 the full control effect; nearly all actives have a fitted effect of over 60% in size
Target sequence (P51450 whole entry, looked up, the tested form may be a part): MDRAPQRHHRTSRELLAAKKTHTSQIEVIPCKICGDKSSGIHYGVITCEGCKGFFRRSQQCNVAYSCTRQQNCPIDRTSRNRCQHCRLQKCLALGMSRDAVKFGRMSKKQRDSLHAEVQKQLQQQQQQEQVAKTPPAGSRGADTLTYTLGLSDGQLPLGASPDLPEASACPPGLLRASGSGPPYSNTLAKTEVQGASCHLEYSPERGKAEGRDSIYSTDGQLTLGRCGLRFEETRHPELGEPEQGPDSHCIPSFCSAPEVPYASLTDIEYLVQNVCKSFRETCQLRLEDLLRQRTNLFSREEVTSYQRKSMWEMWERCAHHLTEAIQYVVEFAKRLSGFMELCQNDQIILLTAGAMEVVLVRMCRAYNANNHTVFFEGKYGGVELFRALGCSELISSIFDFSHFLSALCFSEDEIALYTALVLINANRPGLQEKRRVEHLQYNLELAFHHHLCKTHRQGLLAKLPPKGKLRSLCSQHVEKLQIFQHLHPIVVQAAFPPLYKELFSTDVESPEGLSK
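Stably transfected Drosophila Schneider cells are the test system, with ROR gamma fused to Gal4 and luciferase under UAS control; luminescence is read after 20 hr of 700 uM copper sulfate induction at ambient temperature.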
ELG1 repair inh: blocks ELG1-dependent DNA repair in HEK293T cells; HEK293T ELG1-luciferase reporter, luminescence, 16 h; DNA damage induced by 5-fluorouridine; Potency, µM (titrated, usually from 46.1 µM), for inactives: at the highest dose activity change, negative = inhibition, most hits filed as inhibitors; 2.3% of 330,000 active; AID 504467; further: on the % scale 0 is the no-effect control and ±100 the full control effect; nearly all actives have a fitted effect of over 55% in size
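Reporter activity after DNA damage by 5-fluorouridine is monitored. Compound-treated cells incubate 16 hr at 37 °C, then ONE-Glo is added for 30 min before luminescence reading.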
Tb PFK inh: blocks T. brucei phosphofructokinase; O15648; T. brucei PFK, ADP-Glo luminescence; Potency, µM (doses to about 57.5 µM), without a hit: at the top dose activity, negative = inhibition, most hits filed as inhibitors; 0.17% of 330,000 active;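 further: 0% = uninhibited 1x PFK enzyme wells and -100% = no-enzyme wells; nearly all actives have a fitted effect of over 60% in size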
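Compounds were pin-transferred as a titration series up to 57 uM into substrate buffer (0.5 mM F6P, 0.1 mM ATP, pH 8.0), then 1.25 nM PFK was added and reactions ran 45 min before ADP-Glo detection.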
NPC1 promoter act: activates the NPC1 promoter. Huh7 NPC1 promoter luciferase reporter, 24 h. Potency, µM (series often up to 9.22 µM), for inactives: at the top dose activation, most hits filed as activators. 2.4% of 320,000 active. AID 485313;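 further: % of control where 0% means no effect; nearly all actives have a fitted effect of over 60% in size; reporter is driven by a mutant NPC1 promoter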
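In 1536-well qHTS, Huh7 cells harboring an NPC1 promoter–luciferase construct received compound for 24 h; activation was quantified by luminescence following luciferase reagent addition.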
An asterisk follows results filed as active; ? = inconclusive; · = no result given; & = joins results of further samples; [ ] = dose if it differs, or a comment. The call rests on the fitted dose curve; in most records, active means well fitted curve in the direction sought with a large enough effect; inconclusive means small, poorly fitted or top-dose-only effect, or another doubt; inactive means no such curve, though single readings can be large; an effect the other way counts as inactive or inconclusive. Potency means the concentration at half of the fitted maximal effect. Not all compounds are listed; the hit share may differ from the screen's.

canonical_smiles	VP16 counter	ELG1 genotox	RORg inh	ELG1 repair inh	Tb PFK inh	NPC1 promoter act
COc1cc(CNC(=O)CCCC/C=C/C(C)C)ccc1O	-12%&20%&7%&5%	7%	?	2%	?	1%
COc1cc(CC2C(=O)N(C)C(=O)N(C)C2=O)ccc1OCc1ccccc1	11%	15%	12%	?	-2%	15%
COc1ccc2c3c1O[C@H]1C(=O)CC[C@H]4[C@@H](C2)N(C)CC[C@]314	0%	-2%	-6%	17%	-1%	·
CN(C)C(=O)Oc1ccc2c(c1)O/C(=C\c1ccccc1)C2=O	?	21µM*	16%	?	8%	1.6µM*
CC(=O)c1c(O)c(C)c(O)c(Cc2c(O)c3c(c(C(=O)/C=C\c4ccccc4)c2O)OC(C)(C)C=C3)c1O	-1%	·	?	·	·	·
OCCCCO	0%	2%	4%	10%	0%	-4%
COCCCOc1ccnc(CS(=O)c2nc3ccccc3[nH]2)c1C (centres undefined)	-3%&6%	14%	-13%&-8%	?	-12%	3.2µM*
NC(Cc1ccc(N(CCCl)CCCl)cc1)C(=O)O (centres undefined)	6%	·	1%	·	·	-11%[46.1 µM]
O=C(Nc1cccc(OC(=O)N2CCCCC2)c1)N1CCOCC1	-6%	-1%	-1%	?	-2%	-3%
CC1C2Cc3ccc(O)cc3[C@]1(C)CCN2CCc1ccccc1 (some centres undefined)	·	-3%	·	-16%	4%	·
CC1[C@H]2Cc3ccc(O)cc3[C@]1(C)CCN2CCc1ccccc1 (some centres undefined)	·	-4%	·	-13%	0%	·
Nc1ccc2c(c1)oc1ccccc12	0%	?	21%	?	3%	25%

2 neighbouring entries from above, quoted:
canonical_smiles	VP16 counter	ELG1 genotox	RORg inh	ELG1 repair inh	Tb PFK inh	NPC1 promoter act
CC(=O)c1c(O)c(C)c(O)c(Cc2c(O)c3c(c(C(=O)/C=C\c4ccccc4)c2O)OC(C)(C)C=C3)c1O	-1%	·	?	·	·	·
OCCCCO	0%	2%	4%	10%	0%	-4%

Complete entries, looked up by structure. Screens in order: VP16 counter, ELG1 genotox, RORg inh, ELG1 repair inh, Tb PFK inh, NPC1 promoter act
CC1C2Cc3ccc(O)cc3[C@]1(C)CCN2CCc1ccccc1 (some centres undefined) is listed as ·, -3%, ·, -16%, 4%, ·
CN(C)C(=O)Oc1ccc2c(c1)O/C(=C\c1ccccc1)C2=O is listed as ?, 21µM*, 16%, ?, 8%, 1.6µM*
CC(=O)c1c(O)c(C)c(O)c(Cc2c(O)c3c(c(C(=O)/C=C\c4ccccc4)c2O)OC(C)(C)C=C3)c1O is listed as -1%, ·, ?, ·, ·, ·

In another format: results already given.
NC(Cc1ccc(N(CCCl)CCCl)cc1)C(=O)O (centres undefined)
  VP16 counter = 6%
  ELG1 genotox = ·
  RORg inh = 1%
  ELG1 repair inh = ·
  Tb PFK inh = ·
  NPC1 promoter act = -11%[46.1 µM]
O=C(Nc1cccc(OC(=O)N2CCCCC2)c1)N1CCOCC1
  VP16 counter = -6%
  ELG1 genotox = -1%
  RORg inh = -1%
  ELG1 repair inh = ?
  Tb PFK inh = -2%
  NPC1 promoter act = -3%
CC1C2Cc3ccc(O)cc3[C@]1(C)CCN2CCc1ccccc1 (some centres undefined)
  VP16 counter = ·
  ELG1 genotox = -3%
  RORg inh = ·
  ELG1 repair inh = -16%
  Tb PFK inh = 4%
  NPC1 promoter act = ·
CC1[C@H]2Cc3ccc(O)cc3[C@]1(C)CCN2CCc1ccccc1 (some centres undefined)
  VP16 counter = ·
  ELG1 genotox = -4%
  RORg inh = ·
  ELG1 repair inh = -13%
  Tb PFK inh = 0%
  NPC1 promoter act = ·
